Screens as filed in PubChem.
SmPrx2 inh: blocks S. mansoni peroxiredoxin 2 enzymatic activity; S. mansoni Prx2 activity coupled to TGR/GSH (TGR is thioredoxin glutathione reductase), NADPH fluorescence loss, qHTS; some inactives read as strong as hits; 0.07% of 65,000 active; AID 448; Potency, µM; active means full or partial inhibition curve with a strong effect at the top dose; inconclusive means weaker partial or single-point curve; inactive means no accepted curve; also: series up to 57 µM; many of its hits are not listed in these tables
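Prx2 activity was followed as the loss of NADPH fluorescence (ex 365/em 450 nm), read every 30 sec for 8 min after H2O2 start. The enzyme mix (50 nM Prx2, 25 nM TGR, GSH, NADPH; pH 7.4 phosphate buffer) was incubated with compound for 15 min at room temperature first.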
LT uptake inh: blocks cellular internalization of anthrax lethal toxin | Cells, anthrax lethal toxin internalization, FRET ratio (460/530) | Potency, µM (doses to about 40 µM), for the others: at the highest dose activity change, negative = inhibition, most hits filed as inhibitors | 0.67% of 70,000 active; active = well fitted falling ratio curve with the 530 nm signal flat; inconclusive = other ratio curves, or a change in one channel alone; inactive = flat curves in the ratio and both channels; the % refers to the ratio; also: % is scaled to controls: 0 for no effect and ±100 for the full control effect; nearly all actives have a fitted effect of over 50% in size; tested in ME-180 cells; beta-lactamase reporter
* marks the source's active call; other numbers are inactive results; ? = inconclusive; nt = not tested or not shown; & = joins results of further samples; [ ] = another dose, or the depositor's remark. Potency is read from the fitted curve at half-maximal effect. These rows are one share of the data; the hit share may differ from the screen's.

SMILES | SmPrx2 inh | LT uptake inh
Cn1c(C(=O)OCC(=O)NCC2CCCO2)cc2sccc21 (configuration not stated) | >57 | 2%
c1ccc(-c2noc(CSc3nc4ccccc4o3)n2)cc1 | >57 | -24%
Cc1ccc(S(=O)(=O)NC(C)(C)CSc2nncn2N)cc1 | >57 | 5%
COc1cccc(C(=O)CSc2nc3ccccc3n2CC(=O)N2CCOCC2)c1 | >57 | ?
Cc1cc(C)cc(OCc2nnc(SCC(=O)N3CCN(c4ccccc4)CC3)o2)c1 | >57 | 8%
O=C(N1CCOCC1)N1c2ccccc2CC(N2CCOCC2)c2ccccc21 (configuration not stated) | >57 | 10%
Brc1ccc(-c2nc(-c3ccccc3)no2)o1 | >57 | ?
COc1ccc(Cn2nnnc2C(C(C)C)N(Cc2ccco2)Cc2cccs2)cc1 (configuration not stated) | >57 | -31%
CCOC(=O)CCn1cc(F)c(=O)n(Cc2ccccc2)c1=O | nt | 5%
CCCn1nnnc1SCC(=O)NCc1ccccc1 | >57 | -9%
CC(=O)Nc1ccc(Cc2ccncc2)cc1 | >57 | 2%
c1ccc(-c2ccccc2OCCn2cncn2)cc1 | >57 | -10%
CCOC(=O)CNC(=O)CSc1ncnc2c1cnn2-c1ccc(OC)cc1 | >57 | 7%
Cc1oc(-c2ccc(Cl)cc2)cc1-c1nn2c(-c3ccco3)nnc2s1 | >57 | ?
Cc1ccc(-c2cc(C(F)(F)F)n3nc(C(=O)N4CCCC4)cc3n2)cc1 | >57 | -18%
COc1cccc(OCC(O)CN(CCO)Cc2ccccc2)c1 (configuration not stated) | >57 | 3%
COc1ccc(OC)c(C(=O)COC(=O)c2c(OC)cccc2OC)c1 | >57 | ?
O=C(Cn1nnc2ccccc2c1=O)N1CCCc2ccccc21 | >57 | 7%
COC(=O)[C@@]1(Cc2ccc(F)cc2)[C@H]2c3cc(C(=O)N4CCCC4)n(CCc4ccc(O)c(O)c4)c3C[C@H]2CN1C(=O)c1ccccc1 | >57 | -7%
CSc1nc(NC(C)C)nc(N2CCOCC2)n1 | >57 | 21%
COc1cc(C(=O)Nc2nc3ccccc3[nH]2)cc(OC)c1OC | >57 | -5%
O=S(=O)(c1ccccc1)N1CCC2(CCN(c3ncccn3)CC2)CC1 | >57 | -8%
O=C(C1CCN(S(=O)(=O)c2cccs2)CC1)N1CCc2ccccc2C1 | >57 | ?
COc1ccccc1N1CCN(C(=O)c2cccc(N3C(=O)NC4CC3(C)Oc3ccccc34)c2)CC1 (configuration not stated) | >57 | 15%
COC(=O)c1[nH]c2cccc(OC)c2c1NC(=O)CCN1CC(C)CC(C)C1 (configuration not stated) | >57 | -10%

Full records from above:
Results for `COC(=O)c1[nH]c2cccc(OC)c2c1NC(=O)CCN1CC(C)CC(C)C1` (configuration not stated) = SmPrx2 inh: >57; LT uptake inh: -10%
Results for `COc1ccc(Cn2nnnc2C(C(C)C)N(Cc2ccco2)Cc2cccs2)cc1` (configuration not stated) = SmPrx2 inh: >57; LT uptake inh: -31%
Results for `CCOC(=O)CCn1cc(F)c(=O)n(Cc2ccccc2)c1=O` = SmPrx2 inh: nt; LT uptake inh: 5%

Next results follow.
SMILES | SmPrx2 inh | LT uptake inh
O=S(=O)(Nc1nc2ccccc2nc1NCC1CCCO1)c1cccs1 (configuration not stated) | >57 | -1%
O=C1CC(SCc2nc3ccccc3[nH]2)C(=O)N1c1ccc(F)cc1 (configuration not stated) | >57 | -1%
CCOC(=O)NC[C@H](Cc1ccc(OCCc2nc(-c3ccccc3)oc2C)cc1)N/C(C)=C\C(=O)c1ccc(C(F)(F)F)cc1 | nt | ?
NCCCNCCCCNCCCN | >57&>57 | -1%&7%
CC(C)n1nnnc1SCC(=O)NCc1cccs1 | >57 | ?
c1ccc2c3c([nH]c2c1)-c1[nH]ncc1CC3 | >57 | -17%
CCOC(=O)C1CCN(C(=O)COc2ccc(Cl)cc2Cl)CC1 | >57 | 8%
O=C(Cn1ncc2c(=O)oc3ccccc3c21)NCC1CCCO1 (configuration not stated) | >57 | -10%
CC(=O)c1cc(-c2ccccc2)n(CCC(=O)NCc2cccs2)c1C | >57 | 0%
COc1ccc(-c2nnc(SCC(=O)N3CCCCC3)o2)c(OC)c1 | >57 | 4%
COc1ccc(-c2cc(N)n(CCC#N)n2)c(OC)c1 | >57 | 14%
C=CCn1c(CCC(=O)O)ccc1-c1ccc(OC)cc1 | >57 | 6%
COc1ccc(OC)c(C2C(C(=O)Nc3cccnc3)=C(C)NC3=C2C(=O)CCC3)c1 (configuration not stated) | >57 | ?
CS(=O)(=O)c1ccc(Cl)c(C(=O)O)c1 | >57 | -1%
O=C(NCCN1CCOCC1)c1cc(-c2ccco2)on1 | >57 | -2%
C=CCOC(=O)CCC(=O)Nc1cccc2ccccc12 | nt | 13%
Brc1ccc(-c2nn3c(-c4ccco4)nnc3s2)o1 | >57 | -25%
O=C(c1cccnc1)N1C2CCC1CC(O)(c1ccc(F)cc1)C2 (configuration not stated) | >57 | -20%
COCC(=O)N1CCC[C@@]2(CCN(C(=O)Nc3cccc(C#N)c3)C2)C1 | >57 | 10%
COC(=O)[C@@]1(Cc2ccc(OC)cc2)[C@H]2c3cc(C(=O)N4CCCC4)n(CCn4cc([N+](=O)[O-])nc4C)c3C[C@H]2CN1C(=O)c1ccccc1 | >57 | 3%
O=C1C2CCCN2C(c2ccccc2F)N1c1cccc(Cl)c1 (configuration not stated) | >57 | -6%
Cc1nn(C)cc1CNC(=O)Nc1ccc(Br)cc1Cl | >57 | 8%
COc1ccccc1C(=O)Nc1ccc(S(=O)(=O)N2CCOCC2)cc1 | >57 | nt
CCCCCCC(C)(C)c1ccc([C@@H]2C[C@H](O)CC[C@@H]2CCCO)c(O)c1 | >57 | ?
COc1ccc(CNC(=O)C(NS(=O)(=O)c2ccc3c(c2)CCCN3C(C)=O)C(C)C)cc1 (configuration not stated) | >57 | -10%
Going on with the list.
SMILES | SmPrx2 inh | LT uptake inh
CN(C)S(=O)(=O)N1CCN(CC(O)COc2ccc(C(=O)c3ccccc3)cc2)CC1 (configuration not stated) | >57 | -9%
COc1ccc(-n2nnnc2SCC(=O)c2cc3ccccc3o2)cc1 | >57 | -19%
COc1ccc(C(=O)N2CCN(S(=O)(=O)c3ccccc3)CC2)c(OC)c1 | >57 | 9%
Cc1nc(N2CCOCC2)c2nc(-c3ccccc3)n(CCN3CCOCC3)c2n1 | nt | 17%
CC(C)C(c1nnnn1CCc1ccccc1)N1CCOCC1 (configuration not stated) | >57 | -15%
c1ccc(-c2cccc(N3CC[C@@]4(CCCNC4)C3)c2)cc1 | >57 | ?
NNC(=O)CCc1ccc2ccc3ccccc3c2c1 | >57 | -6%[8 µM]
CC(C)(C)c1ccc(C(=O)Nc2nonc2-c2nc3ccccc3[nH]2)cc1 | >57 | 8%
S=c1[nH]ncc2ccccc12 | >57 | -13%
CCCn1nnc(NC(=O)c2cc(Br)ccc2OC)n1 | >57 | ?
Cc1noc(/C=C/N(C)C)c1S(=O)(=O)N1CCCC(C(=O)NCc2ccc(Cl)cc2)C1 (configuration not stated) | >57 | ?
O=c1nc2n(c3sc4c(c13)CCC4)Cc1ccccc1-2 | >57 | -24%
O=C(O)c1ccc2c(c1)N(Cc1ccccc1)C(=O)c1ccccc1S2=O (configuration not stated) | >57 | -2%
CCC(=O)/C=C1\Sc2ccc(OC)cc2N1CCO | >57 | ?
COc1ccc(NC(=O)C2CC2)cc1-n1cnnn1 | >57 | 0%
COC(=O)C1CCN(C(=O)c2ccccc2Oc2ccccc2)CC1 | nt | 2%
O=C(NC1CCCC1)C1CCCN1C(=O)Nc1ccccc1 (configuration not stated) | >57 | -9%
C=CCSC1=N/C(=C\c2ccc3c(c2)OCO3)C(=O)S1 | >57 | 22%
O=C(O)CN1C(=O)O[C@@H](c2ccccc2)C1=O | >57 | ?
Cc1cc(C)c(NC(=O)c2ccc(S(=O)(=O)N3CCOCC3)cc2)c(C)c1 | >57 | -5%
O=C(NCCc1ccccc1)c1cc2ncc(Br)cn2n1 | >57 | 6%
CCCCC(=O)Nc1ccc(C(=O)Nc2ccc(S(=O)(=O)N3CCCC3)cc2)cc1 | >57 | -3%
c1ccc2nc(N3CCCC3)c(N3CCCC3)nc2c1 | >57 | 1%
Cc1ccc(NC(=O)CN(C)c2ccc(S(=O)(=O)N3CCN(C)CC3)cn2)cc1 | >57 | 0%
C=C1C[C@@]23C[C@]1(O)CC[C@@H]2[C@]12C=C[C@@H](O)[C@@](C)(C(=O)O1)[C@@H]2[C@@H]3C(=O)O | >57 | ?
Continued.
SMILES | SmPrx2 inh | LT uptake inh
COc1cccc(Cn2c(=O)c(C)nc3cnc(OCc4ccccc4)nc32)c1 | >57 | -10%
O=C1c2ccccc2C(=O)N1Cc1nc(-c2ccccn2)no1 | >57 | -15%
C[C@@H](C(=O)NCc1cccc2ccccc12)[C@H]1C[C@]1(C)[C@H](NC(=O)OCc1ccccc1)c1ccccc1 | >57 | ?
CCOCCCn1c(C)nc2c(c1=O)c1nc3ccccc3nc1n2CCC1=CCCCC1 | >57 | nt
O=C(CCC1CCCCC1)Nc1c2c(nn1-c1ccc(F)cc1)CS(=O)C2 (configuration not stated) | >57 | 10%
O=C(Cc1cn2ccsc2n1)Nc1ccccn1 | >57 | ?
Cn1c(SCc2c(F)cccc2Cl)nnc1-c1cccs1 | >57 | nt
Cc1cc(NC(=O)C2CCCN(S(=O)(=O)c3cnc[nH]3)C2)ccc1Br (configuration not stated) | >57 | -19%
CCN(CC)C(=O)C(C)OC(=O)c1ccc(O)cc1 (configuration not stated) | >57 | 17%
Cc1cc(C)nc(NS(=O)(=O)c2ccc(Br)cc2)n1 | >57 | 6%
Cn1c(CCNC(=O)c2ccco2)nc2cc(NS(=O)(=O)c3ccccc3)ccc21 | >57 | nt
CCOC(=O)c1c(C)[nH]c(C(=O)COC(=O)CSCC(=O)N(CC)CC)c1C | ? | 13%
C=CCN1CC(c2nc3ccccc3n2CCOc2ccccc2)CC1=O (configuration not stated) | >57 | -3%
CCOC(=O)c1cc(C)n(-n2cnnc2)c1C | >57 | -2%
COn1c(-n2nc(C)cc2C)nc2ccccc2c1=O | >57 | -11%
Cn1c(N)nc2c(nc(OCc3ccccc3)n2[C@@H]2O[C@H](CO)[C@@H](O)[C@@H]2O)c1=O | >57 | -2%[8 µM]
CN(CCNC(=O)c1cccc(N2CCCC2=O)c1)Cc1ccccc1 | >57 | -1%
COCCCNC(=O)CCc1nc2cccnc2n1Cc1ccccc1 | >57 | nt
COc1cccc(Nc2ncc3ncc(=O)n(Cc4cccs4)c3n2)c1 | >57 | ?
COCCNC(=O)CSc1nc2nc(C)cc(C)n2n1 | >57 | 4%
O=c1[nH]c(=S)[nH]c(-c2ccccc2)c1Cc1c(O)ccc2ccccc12 | >57 | -10%[8 µM]
CC1(C)CC(=O)c2c(-c3cccnc3)n[nH]c2C1 | >57 | 13%
CC(C)C(C(=O)NCC1CCCO1)N(Cc1ccco1)C(=O)CNS(=O)(=O)c1ccc(F)cc1 (configuration not stated) | >57 | -3%
CC(=O)NC(Cc1cc(C)ccc1C)C(=O)N1CCN(C(=O)Nc2ccc(C(C)=O)cc2)CC1 (configuration not stated) | >57 | -1%
c1ccc(CN2COc3c(ccc4c5c(ccc34)CN(Cc3ccccc3)CO5)C2)cc1 | >11 | -7%[8 µM]
More structures follow.
SMILES | SmPrx2 inh | LT uptake inh
COC(=O)c1cc2nc(-c3ccccc3)cc(C)n2n1 | >57 | ?
O=c1oc(-c2cccs2)nc2scc(-c3cccs3)c12 | >57 | -14%
C=CCn1c(N)nc2ccccc21 | >57 | -14%
O=c1[nH]c(N2CCN(Cc3ccc4c(c3)OCO4)CC2)nc2c1CCC2 | >57 | 3%
CC(=O)N(CCCN(C)C)CCC(C)CCC=C(C)C (configuration not stated) | nt | -11%
CCOC(=O)N1CCN(C(=O)CCCn2nc(C)c3sc4ccccc4c3c2=O)CC1 | >57 | -3%
COc1ccc(N2CC(C(=O)NCc3ccccc3)CC2=O)cc1 (configuration not stated) | >57 | 11%
CCCCC#N | nt | -14%
CC1=C(C(=O)Nc2cc(-c3cccc(F)c3)[nH]n2)C2(CCCCC2)OC1=O | >57 | ?
O=C(Cn1c(NCCCO)nc2ccccc21)c1ccco1 | >57 | -11%
COC(=O)C1=C(C)NC(=O)C1(NC(=O)CN1CCCC1=O)C(F)(F)F (configuration not stated) | >57 | 0%
OC(CCCN1CCCCC1)(c1ccccc1)c1ccccc1 | >57 | -3%[3.58 µM]
N[C@H](Cc1cc(I)c(Oc2ccc(O)c(I)c2)c(I)c1)C(=O)O | >11 | ?
CCOc1ccc(N2CC(C(=O)NC(C)C)CC2=O)cc1 (configuration not stated) | >57 | 8%

Five entries out of the list, ordered by number of heavy atoms, ascending:
SMILES | SmPrx2 inh | LT uptake inh
Cc1cc(C)nc(NS(=O)(=O)c2ccc(Br)cc2)n1 | >57 | 6%
COCCNC(=O)CSc1nc2nc(C)cc(C)n2n1 | >57 | 4%
COc1ccccc1C(=O)Nc1ccc(S(=O)(=O)N2CCOCC2)cc1 | >57 | nt
Cc1ccc(-c2cc(C(F)(F)F)n3nc(C(=O)N4CCCC4)cc3n2)cc1 | >57 | -18%
COc1cccc(Cn2c(=O)c(C)nc3cnc(OCc4ccccc4)nc32)c1 | >57 | -10%
